NPYLR7 agonist – mosquito NPYLR7 agonism | HEK293T NPYLR7/Galpha15, GCaMP6s calcium fluorescence | activation, % at 10 µM | hit rate 0.15% among 270,000; in the data active = activation above about 40%;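 also: 0% = vehicle and 100% = reference agonist at the receptor; some compounds past the cut are filed as inactive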
NPYLR7 agonist max-min – also measured in NPYLR7 agonist; calls as there; activation, %; measured here: Max-Min RFU normalised activation; some inactives read as strong as hits;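 span of the calcium signal over five minutes; 0% = vehicle and 100% = native peptide agonist; compound fluorescence can raise it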
* marks the source's active call; other numbers are inactive results; & = joins results of further samples.

Sample of the layout, 14 compounds:
molecule	NPYLR7 agonist	NPYLR7 agonist max-min
Cc1cc2c(c(-c3cnccn3)c1)OC(CNC(=O)/C=C/c1cccs1)C2 (configuration not stated)	5	5
CN(C)CCn1c2c(c(SCC(=O)NCc3ccccc3)nc1=O)CCCC2	1	3
Cc1ccc(-n2c(-c3ccncc3)n[nH]c2=S)cc1	2	4
CCN(Cc1ccncc1)C(=O)C(c1cccc(C)c1)N(C)C (configuration not stated)	2	1
O=C(NC(c1ccc(F)cc1)c1cnccn1)C1CCN(Cc2cccc(Cl)c2)CC1 (configuration not stated)	1	-8
Cc1ccc(C)c(-c2[nH]ncc2CN(C)C(C)C(=O)N(C)C)c1 (configuration not stated)	0	0
COc1ccc(-c2nn[nH]n2)cc1OC	5	4
O=C(OCc1cn2cc(Cl)cc(Cl)c2n1)C1CCOCC1	5	-2
Cc1csc(NC(=O)C(C)Oc2cccc(Cl)c2)n1 (configuration not stated)	-12	-2
Cc1nn(Cc2ccccc2Cl)c2sc(C(=O)NC3CCN(C)CC3)cc12	-1	-1
CC(C)Oc1cccc(-c2ccc3nc(CO)[nH]c3c2)c1	2	-3
CNc1cnc(-c2cccc(N)c2)cn1	1	1
O=C1CCC(NCc2ccc(-n3cncn3)cc2)CCN1Cc1ccccc1 (configuration not stated)	0	0
Cc1ccsc1CN(C)C(=O)Nc1cc(CC(C)(C)C)no1	9	5

The list itself, previewed entries included:
molecule	NPYLR7 agonist	NPYLR7 agonist max-min
Cc1cc2c(c(-c3cnccn3)c1)OC(CNC(=O)/C=C/c1cccs1)C2 (configuration not stated)	5	5
CN(C)CCn1c2c(c(SCC(=O)NCc3ccccc3)nc1=O)CCCC2	1	3
Cc1ccc(-n2c(-c3ccncc3)n[nH]c2=S)cc1	2	4
CCN(Cc1ccncc1)C(=O)C(c1cccc(C)c1)N(C)C (configuration not stated)	2	1
O=C(NC(c1ccc(F)cc1)c1cnccn1)C1CCN(Cc2cccc(Cl)c2)CC1 (configuration not stated)	1	-8
Cc1ccc(C)c(-c2[nH]ncc2CN(C)C(C)C(=O)N(C)C)c1 (configuration not stated)	0	0
COc1ccc(-c2nn[nH]n2)cc1OC	5	4
O=C(OCc1cn2cc(Cl)cc(Cl)c2n1)C1CCOCC1	5	-2
Cc1csc(NC(=O)C(C)Oc2cccc(Cl)c2)n1 (configuration not stated)	-12	-2
Cc1nn(Cc2ccccc2Cl)c2sc(C(=O)NC3CCN(C)CC3)cc12	-1	-1
CC(C)Oc1cccc(-c2ccc3nc(CO)[nH]c3c2)c1	2	-3
CNc1cnc(-c2cccc(N)c2)cn1	1	1
O=C1CCC(NCc2ccc(-n3cncn3)cc2)CCN1Cc1ccccc1 (configuration not stated)	0	0
Cc1ccsc1CN(C)C(=O)Nc1cc(CC(C)(C)C)no1	9	5
CCOc1ccc(-c2nnc(NC3=NCCCCC3)o2)cc1	-12	-13
COc1ccccc1Cc1nc2c(c(N3CCOCC3)n1)CN(S(=O)(=O)c1cc(Cl)ccc1Cl)CC2	10	8
O=C(COc1ccc(F)cc1)N1CCOC(COCc2c(Cl)cccc2Cl)C1 (configuration not stated)	-4	-4
Cc1ccc2nc(C)c(C(=O)NCC(O)c3ccccc3)cc2c1 (configuration not stated)	2	1
CCC(CC)NC(=O)c1ccc(-c2cccs2)nc1C	-1	-2
Cc1noc(C)c1CN1CCN(c2ncnc3cc(Cl)ccc23)CC1	-1	0
O=S(=O)(Nc1ccc(Cl)cc1)c1cccc2nsnc12	0	-2
COc1cccc(CN2CCC(C(=O)NC(c3ccc(F)cc3)c3ccc4ccccc4n3)CC2)c1 (configuration not stated)	5	2
O=C(Cc1ccccc1)Nc1c2c(nn1-c1ccc([N+](=O)[O-])cc1)CS(=O)(=O)C2	-2	-4
CN(CCN1CCCCC1=O)Cc1cc2n(n1)CCNC2	10	7
CC(=NOCc1cccc(CON=C(C)c2ccccc2)c1)c1ccccc1	2	0
O=C(CN1C(=O)C(Oc2ccccc2)C1c1ccccc1)NCCc1ccccn1 (configuration not stated)	3	9
CCOC(=O)c1c(N=c2oc3ccccc3cc2-c2nc3ccccc3[nH]2)sc2c1CCCC2	2	-4
CCn1ccnc1CN(C)Cc1nc(-c2cccc(Cl)c2)no1	17	10
O=C1C2C3C=CC(C3)C2C(=O)N1CCC1=CCCCC1 (configuration not stated)	3	1
COc1ccc(C(=O)NC(C(=O)NC2CC2)C2CCN(S(=O)(=O)c3ccc(Cl)cc3)CC2)cc1 (configuration not stated)	9	17
CCOc1ccc(NC(=O)c2c(-c3ccccc3)noc2C)c([N+](=O)[O-])c1	4	3
C=c1ncsc1=C1N=C(CN)NO1	6	5
Cc1cc(C)c2c(c1)C(NC(=O)c1ccc[nH]c1=S)CCO2 (configuration not stated)	-7	-7
CCN(CC)S(=O)(=O)c1ccc(NC(=O)C2=Cc3ccccc3OC2)cc1	-3	-5
CN(C)C(=O)c1ccc(N2CCC(NCCN3CCCC(c4ccccc4)C3)CC2)cc1 (configuration not stated)	3	-5
CCc1ccc(-c2ccc(SCC(=O)N3CCCCC3)nn2)cc1	5	4
O=C(CSc1nnc(C2CC2)n1C1CC1)c1ccc2c(c1)OCO2	-7	-1
COc1ccc(S(=O)(=O)Oc2ccc(CN(Cc3ccco3)C(=O)c3cccc(F)c3)cc2)cc1	-8	-6
COC(=O)Cc1cc(OC)c(OC)cc1S(=O)(=O)N1CCCc2cc(C)ccc21	8	6
CCCNC(=O)N1CCN(CCN2C(=O)CSC2c2ccc3c(c2)OCCO3)CC1 (configuration not stated)	8	15
CCc1nc(CN(C)Cc2ncnn2C)no1	34	21
O=C1NC2(CCC(c3ccccc3)CC2)C(=O)N1CCOc1ccc(F)cc1 (configuration not stated)	1	8
CCC(C)C(=O)N1CCN(S(=O)(=O)c2ccn(C)c2)CC1 (configuration not stated)	0	0
CCN(CC)C(=O)n1nc(C)c(CN2C(=O)c3ccccc3C2=O)c1C	1	1
O=C(COC1CCCCC1)Nc1cccnc1-n1cncn1	0	1
C[C@H](C(=O)N[C@H](C)c1ccccc1)N1Cc2ccc(-c3ccnn3C)nc2C1=O	-10	-9
O=c1oc2cc(OCc3nn[nH]n3)ccc2c2ccccc12	-4	-5
COc1cccc(N=C2SC(C(=O)Nc3ccc(C)c(Cl)c3)CC(=O)N2C)c1 (configuration not stated)	2	-1
CCc1ccc(CN(C)C(=O)c2cn(Cc3ccccc3C)nn2)nc1	0	-4
CCOc1cc(C(=O)Nn2cnc3c(cnn3C(C)(C)C)c2=O)cc(OCC)c1OCC	1	-2
O=C(Nc1ccc(Cl)cc1)N1CCSC1c1cccs1 (configuration not stated)	-4	-3
CCOC(=O)c1nn(Cc2ccccc2)c2c1CN(Cc1coc3ccc(C)cc3c1=O)CC2	8	-7
CN(C)S(=O)(=O)c1cccc(-c2nnc(C3(C)CCOCC3)o2)c1	14	11
Cc1c(C)n2c3c(=O)n(CCCO)c(=O)n(C)c3nc2n1C(C)c1ccccc1 (configuration not stated)	-13	-15
COc1ccc(C)cc1CC(=O)NC(C)c1ccc(C)o1 (configuration not stated)	1	-2
O=C(NCC(=O)N1CCC(c2nc3ccccc3s2)CC1)c1ccc(F)cc1F	8	11
CN(CC(=O)N1CCC(Cc2ccccc2)CC1)Cc1nc2ccccc2c(=O)[nH]1	-1	-1
CCOC(=O)Cn1cnc([N+](=O)[O-])c1	1	9
COCCCNc1nc2nonc2nc1N(C)CCCN1CCCCC1	-3	-5
Cc1cc(C)cc(C(=O)N2CCN(CC(=O)Nc3sccc3C#N)CC2)c1	-2	-5

Later entries.
The line under a structure holds: NPYLR7 agonist, NPYLR7 agonist max-min
N#Cc1ccccc1-c1ccc(COC(=O)C2CCCO2)cc1 (configuration not stated)
    2, 0
CSCCNC(=O)c1cccc(OC2CCN(S(C)(=O)=O)CC2)c1
    3&4, 3&2
Cc1c(NCc2cccnc2)cccc1C(=O)NC(C)(C)C(=O)O
    7, 7
O=C(Cn1ccnn1)N(Cc1cccs1)c1ccc(F)cc1F
    0, 5
Cc1nnc(NC(=O)c2cc(=O)c(OCC(=O)Nc3ccccc3)co2)s1
    0, 2
CCOC(=O)C1=C(C)N(c2ccc(N(C)C)cc2)C(C)=C(C(=O)OCC)C1c1cccc([N+](=O)[O-])c1
    10, 6
Cc1ccn2c(=O)nc(SCc3ccccc3C)nc2c1
    2, 1
Cc1ccc(NC(=O)/C=C/c2ccc(Br)o2)c(Br)c1
    3, -1
CCN(CC)S(=O)(=O)c1ccc2nnn(O)c2c1
    1, 0
CCCC(=O)N1CCCN(Cn2cc(-c3ccccc3)n(C)c2=S)CC1
    5, 4
Cc1cc(=O)n2c(-c3cccc(NC(=O)c4ccccc4C)c3)csc2n1
    8, 0
CN(C)C1CCCN(C(=O)c2cccc(-c3ncc[nH]3)c2)CC1 (configuration not stated)
    2, 2
OCC#Cc1ccc(-c2nccn2CCN2CCOCC2)s1
    7, 0
CCC1CN(C(=O)c2ccc(-c3cccc(CO)c3)nc2)CCN1C(C)C (configuration not stated)
    2, 0
O=C(NCc1ccc(F)c(F)c1)c1ccc(-c2cc(-c3cccc4ccccc34)[nH]n2)cc1
    18, 13
COc1ccc(CC(=O)N2CCCC(Nc3ccc4c(c3)OCCO4)C2)cc1 (configuration not stated)
    0, -4
Cc1ccc(Cc2nsc(N3CCN(CCNC(=O)Nc4ccccc4C(F)(F)F)CC3)n2)cc1
    10, 13
NC(=O)N1CCCC(C(=O)Nc2ccnn2-c2cccc(Cl)c2)C1 (configuration not stated)
    13, 11
O=C1c2cccc3c(NCCO)ccc(c23)C(=O)N1CCO
    107*, 84*
O=C(COc1ccc(Cl)cc1)N1CCc2ccccc2C1c1ccccc1F (configuration not stated)
    -4, 5
COCCn1c(O)c(C=NCCSCc2cccs2)c(=O)[nH]c1=S
    -2, -9
CN1CC2(CCCN(C(=O)c3[nH]cnc3-c3ccccc3)CC2)OC1=O (configuration not stated)
    -2, -6
CS(=O)(=O)c1ccc(Cl)c(C(=O)NCc2cccnc2)c1
    6, 6
O=C(NC(=S)NC1CCSC1=O)c1ccco1 (configuration not stated)
    1, 0
OCC1(CCOc2ccccc2)CCCN(c2nnnn2-c2ccccc2)C1 (configuration not stated)
    -6, -10
Cc1nc2nccc(-c3ccc(OCc4ccccc4)cc3)n2n1
    0, 0
NC(=NS(=O)(=O)c1ccc(Cl)cc1)c1ccc(Cl)cc1
    5, 1
CC(c1cccc(-c2ccc(NC3CC3)nn2)c1)N1CCCC1 (configuration not stated)
    24, 15
O=C(Cc1cc(-c2ccc(F)cc2F)on1)NCCc1ccccc1
    1, 4
O=C(CCCCSc1nnc(-c2ccccc2)n1-c1ccccc1)N1CCN(c2ccccc2F)CC1
    9, 13
COc1ccc(C(CNc2nn3cc(C)nc3s2)N2CCCC2)cc1 (configuration not stated)
    0, -3
Cc1cc(S(C)(=O)=O)ccc1NCc1ccc(C#N)cc1F
    5, 2
COc1ncccc1C(=O)NCC(C)Oc1cccnc1 (configuration not stated)
    -2, -3
N#CCSc1ccc(F)cc1
    0, 8
Cc1cccc(C)c1Oc1ncccc1CNC(=O)C1CCCCn2nnnc21 (configuration not stated)
    5, 2
COCCNC(=O)CCN(CC(C)C)c1nc(-c2ccc(F)cc2)nc2cc(Cl)ccc12
    7, 5
CC(C)(C)c1cc(C(c2ccncc2)N2CCOCC2)cc(C(C)(C)C)c1O (configuration not stated)
    0, -2
CCN1CCN(C(C)CCc2ccccc2)CC1 (configuration not stated)
    -15, -17
Cc1cc(C(=O)CN2C(=O)NC(CC(C)C)C2=O)c(C)n1C1CC1 (configuration not stated)
    18, 21
CN1CCN(C(CNC(=O)NC(C)(C)C)c2ccc3c(c2)CCN3C)CC1 (configuration not stated)
    -4, -12
CNC(=O)[C@H]1CC[C@@](C)(C(=O)N(C)Cc2ncc[nH]2)C1(C)C
    6, 4
Cc1cc(N2CCOCC2)nc(Nc2ccc(NC(=O)c3cccc4ccccc34)cc2)n1
    11, 5
CCc1nc(C)sc1C(=O)N[C@H]1C[C@H]2C(=O)NCC(=O)N2C1
    -3, -5
COc1ccc(-c2nc3cc(C)ccn3c2NC(=O)C(C)(C)C)cc1OC
    -9, -1
CS(=O)(=O)c1ccc(Cc2nc(CCc3ccccc3)n[nH]2)cc1
    -6, -8
O=C(Nc1ccccc1-c1ccccc1)N1[C@H]2CCNC[C@@H]1CC2
    0, -2
Cc1ccc(-c2nc(CNC(=O)c3scnc3C)[nH]c2-c2ccccn2)cc1
    20, 9
CCC(COC)NC(=O)c1cnc2c(-c3ccccc3F)cnn2c1C (configuration not stated)
    12, -3
COCCN1C(=O)N(Cc2ccccc2)C2(CCN(Cc3cnn(C)c3)CC2)C1=O
    9, -5
CCOc1ccc(N(CC(=O)NCCc2ccc(OC)c(OC)c2)S(=O)(=O)c2ccc(SC)cc2)cc1
    -15, -23
COCC(=O)Nc1ccc(-c2cn3nc(OC)ccc3n2)cc1
    -8, -15
COc1ccccc1CNC(=O)CNCC1(C)CC(C)=NO1 (configuration not stated)
    -3, -6
O=C(CCn1c(=S)[nH]c2ccccc2c1=O)NCC1(c2ccccc2)CCCC1
    4, 11
CC(C)c1nc2sc3c(N4CCOCC4)ncnc3c2c2c1COC(C)(C)C2
    6, 0
CCC(Cn1ccnc1)Nc1nc(COC)nc2c1cnn2C (configuration not stated)
    0, -1
CN1CC2N(Cc3ccccc3-c3ccccc3)C3CCC2(CC3)OC1=O (configuration not stated)
    16, 17
O=C(NCC1Cc2cc(F)cc(-c3ccccn3)c2O1)c1cc(F)ccc1F (configuration not stated)
    9, 1
O=C(Cc1ccc(NCc2ccsc2)cc1)NCCN1CCCCC1
    6, 4
O=S(=O)(Nc1cc(F)ccc1F)c1ccc(C(F)(F)F)cc1
    10, 4

Full records, quoted from the list. Screens in order: NPYLR7 agonist | NPYLR7 agonist max-min
Entry for `CCC(COC)NC(=O)c1cnc2c(-c3ccccc3F)cnn2c1C` (configuration not stated) : 12 | -3
Entry for `COc1ccc(-c2nc3cc(C)ccn3c2NC(=O)C(C)(C)C)cc1OC` : -9 | -1

Screening data (PubChem)

Not all compounds are listed; rates above refer to the full screens.
